CapD inh – CapD enzyme inhibition; AID 492967; purified CapD enzyme, fluorescence intensity read-out; stronger effect = lower value; some hits fall short of the stated cut; z-score (test concentration not listed); hit rate 0.23% among 140,000;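 active means z-score under -4 in either of two replicates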;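 further: stock transfer was 100 nL into about 40 µL; score is relative to mean and spread of the plate; one replicate is shown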
AID504770 – E. coli YBA685 growth inhibition, screen for V. cholerae RctB inhibitors | E. coli YBA685 rctB-dependent plasmid, OD600 growth, 3 h; stronger effect = lower value | z-score (concentration not given with the values) | hit rate 0.27% among 130,000 | AID 504770;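 active means z-score under -2 on both plates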;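 further: wells of about 30 µL received 100 nL stock; score is relative to mean and SD of the test wells; the first replicate is given; strong numbers were not always called active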
An asterisk follows results filed as active; . = not tested or not shown.

SMILES | CapD inh | AID504770
CC(=O)N1N=C(c2c(-c3ccccc3)c3cc(Cl)ccc3[nH]c2=O)CC1c1ccccn1 (centres undefined) | 12 | .
NC1=NN=C(c2ccc3c(c2)OCCO3)CS1 | . | 1.1
Nc1nc2cc(S(=O)(=O)N3CCCC3)ccc2o1 | . | 0.3
O=C(CN1C(=O)/C(=C\c2ccccc2Br)Oc2ccccc21)NC1CC1 | -0.36 | -0.45
CCCCN(CC)C(=O)c1cc2cc3ccc(C)cc3nc2o1 | 0.34 | -1.2
CN1/C(=C/C=N/n2cnnc2)C(C)(C)c2ccccc21 | -0.32 | 1.8
Nc1ccc2nc(CN3CCOCC3)[nH]c2c1 | . | -0.25
COc1ccc(Cl)c(OC)c1C(N)=O | 0.005 | .
CCCNS(=O)(=O)c1ccc(Cl)c(C(F)(F)F)c1 | . | 0.55
CCN1C(=O)C(=C2C=C(C)N(Cc3ccco3)C(C)=C2)C(=O)N(CC)C1=S | . | 1.6
CNc1nc(C)nc(-c2ccccc2O)n1 | -0.52 | -1.5
COc1ccc(N2CCN(C(=O)OCC3CCCN(Cc4ccc(OC)c(OCc5ccccc5)c4)C3)CC2C)cc1 (centres undefined) | -0.62 | .
O=C(Cn1c(C(=O)N2CCOCC2)cc2sccc21)c1ccccc1 | . | 0.75
CCOC(=O)Cc1n[nH]c(CC(=O)OCC)n1 | 0.53 | 0.5
CCc1[nH]c(=O)c(C#N)c2c1CCCC2 | 42 | 0.2
Brc1ccc(-c2nnc3sc(CN4CCCCCC4)cn23)cc1 | -0.8 | 0.4
N#Cc1c(N)sc2c1CCCCC2 | -0.22 | .
CO/N=C/c1ccc(Sc2cccc(C(F)(F)F)c2)c([N+](=O)[O-])c1 | -0.36 | .
CC(C)C(N)c1cccs1 (centres undefined) | . | -0.55
O=C(NC1CCCC1)C1CCC(=O)N1Cc1ccc(F)cc1 (centres undefined) | -0.17 | -0.05

18 neighbouring records already listed, for reference:
SMILES | CapD inh | AID504770
Nc1nc2cc(S(=O)(=O)N3CCCC3)ccc2o1 | . | 0.3
O=C(CN1C(=O)/C(=C\c2ccccc2Br)Oc2ccccc21)NC1CC1 | -0.36 | -0.45
CCCCN(CC)C(=O)c1cc2cc3ccc(C)cc3nc2o1 | 0.34 | -1.2
CN1/C(=C/C=N/n2cnnc2)C(C)(C)c2ccccc21 | -0.32 | 1.8
Nc1ccc2nc(CN3CCOCC3)[nH]c2c1 | . | -0.25
COc1ccc(Cl)c(OC)c1C(N)=O | 0.005 | .
CCCNS(=O)(=O)c1ccc(Cl)c(C(F)(F)F)c1 | . | 0.55
CCN1C(=O)C(=C2C=C(C)N(Cc3ccco3)C(C)=C2)C(=O)N(CC)C1=S | . | 1.6
CNc1nc(C)nc(-c2ccccc2O)n1 | -0.52 | -1.5
COc1ccc(N2CCN(C(=O)OCC3CCCN(Cc4ccc(OC)c(OCc5ccccc5)c4)C3)CC2C)cc1 (centres undefined) | -0.62 | .
O=C(Cn1c(C(=O)N2CCOCC2)cc2sccc21)c1ccccc1 | . | 0.75
CCOC(=O)Cc1n[nH]c(CC(=O)OCC)n1 | 0.53 | 0.5
CCc1[nH]c(=O)c(C#N)c2c1CCCC2 | 42 | 0.2
Brc1ccc(-c2nnc3sc(CN4CCCCCC4)cn23)cc1 | -0.8 | 0.4
N#Cc1c(N)sc2c1CCCCC2 | -0.22 | .
CO/N=C/c1ccc(Sc2cccc(C(F)(F)F)c2)c([N+](=O)[O-])c1 | -0.36 | .
CC(C)C(N)c1cccs1 (centres undefined) | . | -0.55
O=C(NC1CCCC1)C1CCC(=O)N1Cc1ccc(F)cc1 (centres undefined) | -0.17 | -0.05

Next structures follow.
SMILES | CapD inh | AID504770
CC1CC(C)CN(C(=O)c2cc(Nc3cccc(C(F)(F)F)c3)nc3ccccc23)C1 (centres undefined) | -0.85 | 0.1
O=C(NCc1n[nH]c(=S)n1-c1cccc(Cl)c1)c1ccccc1 | 0.71 | -0.75
COCCn1c(=NC(=O)c2cccs2)sc2cc(C(=O)OC)ccc21 | 1.1 | 0.15
O=S(=O)(Nc1cccc(Br)c1)c1cccs1 | -0.26 | -0.2
CC1CCc2c(nc3ncnn3c2NCCc2ccccc2F)C1 (centres undefined) | . | -1.2
CCNC(=O)c1ccc(-c2nc3ccccc3s2)s1 | . | -0.15
COc1ccc(NC(=S)NCc2ccncc2)cc1 | -0.055 | .
CCN(CC)c1nc(N)nc(N(c2ccccc2)c2ccccc2)n1 | 0.31 | 2
Cn1cc(-c2ccccc2C(=O)O)c(=O)c2ccccc21 | 31 | -0.65
C/C=C(\C)C(=O)Nc1ccc(Cl)cc1C(=O)c1ccccc1 | -0.24 | 0.35
COc1ccc(Cl)cc1-c1nc(-c2ccc(NC(=O)c3cccs3)cc2)no1 | 0.26 | .
CCOC(=O)/C(=N\Nc1ccccc1[N+](=O)[O-])NC(=O)c1ccccc1 | -0.24 | .
NN1CCN(Cc2cccc3ccccc23)CC1 | 0.14 | -1.1
CN(C(=O)Cc1c(C(=O)O)[nH]c2ccccc12)c1ccccc1 | -0.24 | 0.7
CCc1ccc(-c2nnn(Cc3nn[nH]n3)n2)cc1 | . | -0.15
O=C(c1ccccc1)c1ccccc1C(=O)N1CCOCC1 | -0.26 | 1.6
CCNc1cc(N(C)C)c2noc3c2c1C(=O)c1ccccc1-3 | -0.29 | 1.4
CCOC(=O)CN1C(=O)C(=O)N(Cc2ccc(C(F)(F)F)cc2)C1=O | -0.21 | .
CCN(C(=O)CSc1nnc(-c2ccco2)n1Cc1ccccc1)C1=CCCC1 | . | 0.3
COC(C)OC(=O)Cn1c(=O)sc2cccc(Cl)c21 (centres undefined) | -0.005 | -0.15
CCOc1ccccc1NC(=S)NCC(C)CSc1ccc(C)cc1 (centres undefined) | -1.3 | 0
CC(=O)NC(CC(=O)Nc1ccc(S(C)(=O)=O)cc1)c1ccccc1 (centres undefined) | . | -0.3
Cc1cc2n(n1)CCCN2Cc1ccc(C(=O)NC2CCCCC2)cc1 | 0.15 | -0.85
O=C(Nc1ccc(Cl)cc1)Nc1nc(CC(=O)N2CCN(C(=O)c3ccco3)CC2)cs1 | . | 0.3
CCC1CCc2nc3sc(C(=O)NCCc4ccc(OC)cc4)c(N)c3cc2C1 (centres undefined) | 38 | 0.65
Cc1cc(=O)oc2cc3occ(-c4ccc(F)cc4)c3cc12 | 2.1 | 0.3
CCOc1ccc(-c2nnc3ccc(SCC)nn23)cc1 | 0.22 | -1.1
CCN(CC(=O)Nc1ccc(OC)cc1)C(=O)c1ccc(C#N)cc1 | . | -0.45
C/C(=N\OC(=O)c1ccc(F)cc1)c1sc(-c2ccc(Cl)cc2)nc1C | 0.15 | .
O=C(N1CCOCC1)C12CC3CC(C1)CC(C(=O)N1CCOCC1)(C3)C2 | -1.2 | 0.55
Cc1ccc(CSc2n[nH]c(C(F)(F)F)n2)cc1 | -0.27 | -0.65
O=C(O)c1ccc(C(=O)O)c2c(-c3ccc4c(=O)n5c6ccccc6nc5c5ccc(C(=O)O)c3c45)ccc(C(=O)O)c12 | -8.4* | .
O=C(COc1ccc2ccccc2c1)Nc1ccc(NC(=O)c2ccco2)cc1 | . | -0.1
COc1cc(C2CC(=O)Nc3c2ccc2ccccc32)ccc1OC(=O)c1ccc(Cl)cc1 (centres undefined) | 0.14 | .
O=C(NCc1ccco1)/C(=C/C=C\c1ccccc1)NC(=O)c1ccccc1 | -1.4 | 0.35
C1C2OC3CC4C1C1CC4C3C21 (centres undefined) | 0.13 | 0.95
CSc1sc(C(=O)NNC(C)=O)c2c1C=CCC2 | 4 | .
C[C@@H]1NC(=O)NC1=O | -0.84 | .
NC(COCc1ccccc1)C(=O)O (centres undefined) | -0.08 | .
O=C(Nc1cccnc1)c1cc(-c2ccccc2)on1 | -0.57 | 1.1
CN(C)Cc1cc(C(C)(C)C)c(O)c(C(C)(C)C)c1 | -0.04 | .
O=C(NC(=O)N1CCOCC1)c1nnc(-c2ccccc2)o1 | 0.33 | -0.6
COc1ccccc1OCc1nc(C#N)c(N(C)C)o1 | 0.3 | 0.2
O=C(CSc1nc2ccccc2o1)N1CCc2ccccc2C1 | -0.24 | .
CCn1c(=N)n(CC(O)COc2cccc(C)c2)c2ccccc21 (centres undefined) | -1 | 0.75
CNCc1nonc1C | . | -0.75
O=c1[nH]c(-c2ccc3nsnc3c2)nc2ccccc12 | -0.23 | -0.6
CSc1cc(-c2ccccn2)nc(C(C)(C)C)c1 | 1.1 | -0.15
CCCNC(C(=O)Nc1cc(C)ccc1C)c1ccccc1 (centres undefined) | . | 0.45
CN(C)c1ccc(CNC2CCCCC2)cc1 | -0.66 | -0.75
O=C(Cn1c(COc2ccccc2)nc2ccccc21)NCC1CCCO1 (centres undefined) | -0.075 | 0.15
COc1ccc(N2C(=O)C3C4c5ccccc5C(C=Nc5cc(C)ccc5C)(c5ccccc54)C3C2=O)cc1 (centres undefined) | 1.7 | .
COc1ccc2[nH]c3c(=O)n(Cc4ccc(C(=O)NCc5cccnc5)cc4)c(=S)[nH]c3c2c1 | -2.2 | 0
COCc1nc(SC)[nH]c(=O)c1C | 0.13 | -0.05
Cc1cc(C)c(C2=Nn3c(C)nnc3SC2C)cc1C (centres undefined) | . | 0.45
CCS(=O)(=O)NCC1COC2(CCCCC2)O1 (centres undefined) | . | 0.5
COc1ccc(C(=O)NCC(=O)n2nc(C)cc2C)cc1 | 0.16 | 0.3
Cc1ccc2c(c1)C1CN(C)CCC1N2C(=S)NC(=O)c1ccco1 (centres undefined) | . | -0.05
O=C(Cc1cccc2ccccc12)Nc1ccc(S(=O)(=O)N2CCCC2)cc1 | -0.34 | -0.1
N#CSC1C=CS(=O)(=O)C1 (centres undefined) | 0.72 | -4.8*

(continued)
SMILES | CapD inh | AID504770
COc1ccccc1Cn1cccc1C1=NC(C)CO1 (centres undefined) | -0.89 | -0.05
O=S1(=O)CCC(NS(=O)(=O)c2cccc3cccnc23)C1 (centres undefined) | -0.14 | 1.1
CCOC(=O)N1CCN(C(=O)CCc2nc3cc(Cl)ccc3n(Cc3ccccc3)c2=O)CC1 | . | 0.35
Brc1ccc2nc(-c3ccccc3)c(-c3ccccc3)nc2c1 | 2.3 | .
O=C(Oc1ccc2c3c(c(=O)oc2c1)CCC3)c1ccco1 | 4.6 | -0.45
Cc1cc(C(F)F)n2ncc(C(=O)O)c2n1 | . | 0.3
CC(=O)N1C(Nc2ccc(C)cc2)CCN1c1ccccc1 (centres undefined) | . | -0.15
O=c1[nH]c(=S)[nH]cc1OCc1ccccc1 | -0.72 | -1.4
O=C(CSc1nnc(CCCN2C(=O)c3cccc4cccc(c34)C2=O)n1-c1ccccc1)NCc1ccccn1 | 32 | .
CC(O)C12c3ccccc3C(c3ccccc31)C1C(=O)N(c3ccc(F)cc3)C(=O)C12 (centres undefined) | -0.27 | .
Cc1cc(OCCCN2CCCC2)ccc1Cl | 0.23 | -0.5
CCOC(=O)c1c(C)oc(NC(=O)COC(=O)c2ccccc2Sc2ccccc2C#N)c1C#N | . | 0.1
Cc1snc(S(=O)(=O)/C(C#N)=N/Nc2cccc(C(F)(F)F)c2)c1C#N | -2.5 | .
Nc1ccc(C(=O)N2CCCc3ccccc32)cc1 | -1.1 | 2.5
CCOC(=O)CC(=O)CSc1nc(-c2cccs2)cc(-c2cccs2)c1C#N | 11 | .
CC(C(=O)Nc1ccccc1)N(C)Cc1ccc(OC(F)F)cc1 (centres undefined) | . | -0.75
O=C(COc1ccc(S(=O)(=O)N2CCOCC2)cc1)Nc1ccccc1C(F)(F)F | 0.12 | 0.2
CCCCn1nc(C(=O)N(C)CC(=O)Nc2ccc(F)c(F)c2F)ccc1=O | . | -0.35
CC1(c2ccc3c(c2)OCO3)NC(=O)N(CN2CCN(S(=O)(=O)c3ccccc3C#N)CC2)C1=O (centres undefined) | . | -0.4
CCN(CC)S(=O)(=O)c1ccc2c(c1)nc(CCC(=O)N1CCN(c3ccccc3)CC1)n2CC | . | -0.3

Some of the entries above, set out differently:
Molecule	CapD inh	AID504770
O=c1[nH]c(=S)[nH]cc1OCc1ccccc1	-0.72	-1.4
CCOC(=O)CC(=O)CSc1nc(-c2cccs2)cc(-c2cccs2)c1C#N	11	.

Carrying on:
SMILES | CapD inh | AID504770
Cc1ccc(Oc2cc(Oc3ccc(C)cc3)nc(-c3ccccc3)n2)cc1 | 0.15 | .
Cc1[nH]c(-c2ccc(F)cc2)cc1C(=O)N1CCCCC1 | -0.77 | 0.15
Cn1c(=O)c2c(ncn2CCOC(=O)N2CCC(O)(Cc3ccccc3)CC2)n(C)c1=O | -0.07 | .
CCCCNC(=O)CSc1nc2sc(C(=O)OCC)c(C)c2c(=O)n1Cc1ccco1 | 4.5 | .
Cc1ccc(S(=O)(=O)c2cnccn2)cc1 | 0.48 | -0.5
O=C1CC(N2CCN(Cc3ccccc3)CC2)C(=O)N1Cc1ccccc1 (centres undefined) | -0.03 | -0.65
Cc1onc(-c2ccccc2Cl)c1C(=O)ON=C1C2CC3CC(C2)CC1C3 | -0.21 | .
CC1SC2(C(=O)Nc3ccccc32)N(c2ccc(Cl)cc2)C1=O (centres undefined) | 0.84 | .
O=C(c1cccc(C(F)(F)F)c1)c1c[nH]c(C(=O)NCc2cccnc2)c1 | -0.58 | .
O=C1/C(=C/c2ccc3nccnc3c2)CCC/C1=C\c1ccc2nccnc2c1 | 1.3 | -1.5
COc1ccccc1NC(=O)Cn1cnc2sc(C(=O)N3CCN(Cc4ccc5c(c4)OCO5)CC3)c(C)c2c1=O | -0.45 | .
Cc1cc(C)c2c(c1)-c1c(ssc1=S)C(C)(C)N2C(=O)CN1CCCCC1 | 0.065 | .
O=C(COc1ccc(Cl)cc1Cl)Nc1ccc(N2CCOCC2)cc1 | -0.55 | -0.8
COc1ccc(C2CC(C(F)(F)F)n3nc(C(=O)O)cc3N2)cc1 (centres undefined) | 0.64 | -0.05
CCN(CC1COc2ccccc2O1)C(=O)C1CCN(C(=O)c2ccccc2C)CC1 (centres undefined) | . | -0.4
COc1ccc(-c2nc(SCC(=O)NCc3ccco3)c(-c3ccccc3)[nH]2)cc1 | 3.9 | 1
CCCC(C)Nc1oc(-c2ccc(Cl)cc2)nc1C#N (centres undefined) | 93 | 0.5

From PubChem
